Screening data deposited in PubChem by several laboratories.
Mtb H37Rv – M. tuberculosis H37Rv growth inhibitors, H37Rv strain (AID 1626); 0.95% of 220,000 active; M. tuberculosis H37Rv growth inhibition; higher % means a stronger effect; inhibition, % at 10 µM; hits with a dose series show IC50 in µM;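 active means confirmed in a dose series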;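 further: bacteria incubated seven days before Alamar blue readout; 0% = bacteria only wells and 100% = bacteria with antibiotic wells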
YopH PTP inh – YopH tyrosine phosphatase inhibitors, primary screen, biochemical, fluorescence Ex485/Em525; inhibition, %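 (about 10 µM by stock and volumes)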; 0.16% of 140,000 active; AID 898, 2007;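 active means inhibition of 50% or more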;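 further: controls were vehicle for no effect and minimum signal wells for full effect; inactives centre near -20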
Mtb betalactam – beta-lactam sensitization of Mtb H37Rv, H37Rv; 0.27% of 330,000 active; M. tuberculosis H37Rv growth with meropenem, percent inhibition; hits of this screen are not shown here; inhibition, % at 25 µM;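 active means about 74% or more and at least 40 points above the plate without the antibiotic, then above 30% in a dose series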;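 further: growth measured after seven days incubation then overnight dye step; 0% = bacteria only wells and 100% = bacteria with antibiotic; twin plates without the antibiotic show which effects depend on it; some results filed as inactive read as strong as hits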
RecA splice inh – Mtb RecA intein splicing inhibitors, primary screen, biochemical, fluorescence, HTS | cell-free RecA intein splicing | inhibition, %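 (about 9 µM by stock and volumes)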 | Protein RecA (Mycobacterium tuberculosis (strain ATCC 25618 / H37Rv)), P9WHJ3 | 0.75% of 290,000 active; in the data active means inhibition above about 30%;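 further: 0% = vehicle wells and 100% = reference inhibitor control wells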
Target sequence (P9WHJ3 whole entry, looked up, canonical isoform): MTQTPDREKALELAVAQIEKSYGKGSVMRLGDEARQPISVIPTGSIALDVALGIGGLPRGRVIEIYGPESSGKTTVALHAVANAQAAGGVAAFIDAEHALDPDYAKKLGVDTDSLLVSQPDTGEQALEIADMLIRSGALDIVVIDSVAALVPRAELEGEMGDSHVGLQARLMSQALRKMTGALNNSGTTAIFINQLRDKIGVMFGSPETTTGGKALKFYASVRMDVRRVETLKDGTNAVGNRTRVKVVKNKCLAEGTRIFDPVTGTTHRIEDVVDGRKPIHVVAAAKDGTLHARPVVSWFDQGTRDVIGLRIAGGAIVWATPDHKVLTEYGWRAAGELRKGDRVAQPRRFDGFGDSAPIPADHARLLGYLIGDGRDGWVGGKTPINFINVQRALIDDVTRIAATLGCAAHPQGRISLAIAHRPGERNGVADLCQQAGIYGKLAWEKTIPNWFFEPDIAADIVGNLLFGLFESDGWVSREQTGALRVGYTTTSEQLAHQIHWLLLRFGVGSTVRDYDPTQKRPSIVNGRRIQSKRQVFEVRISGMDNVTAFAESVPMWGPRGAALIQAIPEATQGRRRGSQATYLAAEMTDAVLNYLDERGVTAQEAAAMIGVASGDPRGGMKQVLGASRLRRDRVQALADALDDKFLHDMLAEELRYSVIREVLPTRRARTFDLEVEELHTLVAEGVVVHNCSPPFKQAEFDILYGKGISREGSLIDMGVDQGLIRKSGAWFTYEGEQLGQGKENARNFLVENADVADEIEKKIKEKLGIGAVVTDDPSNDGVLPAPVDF
Arbovirus inh – antivirals against arbovirus infection, primary screen, cell-based, full library, 10K replicate subset | AID 1251, 2008 | 0.37% of 200,000 active | arbovirus infection cell-based antiviral screen | inhibition, % at 10 µM;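 active means inhibition from about 30%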;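 further: bluetongue infection of BSR cells; cell survival read as ATP light after 72 h; 0% = infected wells without compound and 100% = uninfected wells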
Arbovirus inh repeat – further read-out of Arbovirus inh, marked with its call; inhibition, %; measured here: 10K subset replicate screen; many hits read low in the repeat;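 first of two repeat runs on a subset; 0% = infected and 100% = uninfected wells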
Numbers without * were called inactive; · = not tested or not shown.

SMILES	Mtb H37Rv	YopH PTP inh	Mtb betalactam	RecA splice inh	Arbovirus inh	others
Cn1c(SCC(=O)Nc2ccccc2)nnc1C(F)(F)F	-3%	·	1	1.6	15
O=C(CCC(=O)Nc1ccccc1)N/N=C/c1cccnc1	·	·	-5	1.8	·
Cc1nnc(NN)n(N)c1=O	-3%	·	-6	-8.1	·
CC(C)c1ccc(-c2csc3ncnc(N4CCN(C)CC4)c23)cc1	·	·	7	0.4	·
Cc1cc(Cl)ccc1NC(=O)CN1C(=O)NC2(CCCc3ccccc32)C1=O (stereo not given)	·	·	0	4.1	·
Cc1[nH]c(=O)c(S(=O)(=O)c2ccccc2)c(C)c1Cl	·	·	-2	0.6	·
CC(C)CN1CCN(Cc2cccn2-c2cccnc2)CC1CCO (stereo not given)	-5%	·	2	1.3	10
Cn1nccc1NC(=O)Nc1ccccc1	·	·	-7	-0.1	·
COc1cccc(CNC(=O)CCCSc2ccccc2)c1	·	·	-8	3.4	·
CSc1ccc(CN(C)C(=O)c2cc(S(=O)(=O)NCc3ccccc3)ccc2C)cc1	·	·	6	-2.7	·
Cc1ccc(-n2c(SCC(=O)Nc3cccc(S(=O)(=O)NC4=NCCCCC4)c3)nc3ccccc3c2=O)cc1C	12%	-27	-4	4.9	-11
CC(=O)n1cc([C@H]2C=C(C(=O)N3CCN(Cc4ccccc4)CC3)O[C@@H](OCc3ccc(CO)cc3)C2)c2ccccc21	6%	·	87	2.7	-11

Reprinted at random: 2 entries already listed
SMILES	Mtb H37Rv	YopH PTP inh	Mtb betalactam	RecA splice inh	Arbovirus inh	others
Cc1[nH]c(=O)c(S(=O)(=O)c2ccccc2)c(C)c1Cl	·	·	-2	0.6	·
Cc1nnc(NN)n(N)c1=O	-3%	·	-6	-8.1	·

Continuation:
SMILES	Mtb H37Rv	YopH PTP inh	Mtb betalactam	RecA splice inh	Arbovirus inh	others
CCN(CC)S(=O)(=O)c1ccc(N2CCCC2)c(NS(=O)(=O)c2ccc(F)cc2)c1	-2%	-15	-7	4.0	7
CN(C)S(=O)(=O)c1ccc(Cl)c(NC(=O)COc2ccccc2[N+](=O)[O-])c1	-8%	-14	5	-3.4	6
CCc1ccccc1NC(=O)C(Cc1ccccc1)c1nn[nH]n1 (stereo not given)	·	·	7	2.7	·
O=C(NC1CCCCC1)C(c1ccco1)N(C(=O)c1csnn1)c1cccc(Cl)c1 (stereo not given)	·	·	0	2.0	·
O=C(Cc1ccccc1)Nc1ccc(C(=O)NCC2COc3ccccc3O2)cc1 (stereo not given)	16%	-28	14	0.1	0
O=C(OC1CCOC1=O)c1cc(-c2ccccc2)nc2ccccc12 (stereo not given)	-2%	-9	3	-1.8	0
CC(C)(C)Nc1c(N)c(=O)oc2ccccc12	-2%	-7	-3	0.3	4
CC(C)(CC(=O)O)CC(=O)N1CCN(c2nc3ccc(Cl)cc3s2)CC1	·	·	3	-0.6	·
COc1cccc(C(=O)/C=C/c2ccc(OCC#N)c(OC)c2)c1	20µM*	-40	85	2.8	-19
O=S(=O)(c1ccc(Cl)cc1)N1CCN(S(=O)(=O)N2CCCCCC2)CC1	-3%	·	-1	-2.5	-5
Cc1ccc(C(=O)Nc2ncc(Cc3ccc(F)cc3)s2)o1	·	-24	6	2.0	-18
O=C(N1CCOCC1)N1CCC(c2nc(-c3ccc(S(=O)(=O)N4CCOCC4)cc3)no2)CC1	-11%	-24	4	-0.8	7
Cc1nn(Cc2c(F)c(F)c(F)c(F)c2F)c(C)c1NC(=O)c1cccc(COc2ccccc2Cl)c1	-8%	-74	0	0.2	-13
O=C(Nc1ccc(N2CCOCC2)cc1)c1ccc(-c2ccccc2[N+](=O)[O-])o1	6%	·	-3	-0.3	3
COc1ccc(CC(=O)NCC2(c3ccc(OC)c(OC)c3)CCOCC2)cc1	·	14	-3	0.1	6
Cc1n[nH]c(C)c1S(=O)(=O)N1CCN(c2ccccn2)CC1	-2%	-39	-4	-0.8	5
O=S(=O)(NCCN1CCOCC1)c1cc(Cl)ccc1Cl	·	·	-4	-4.0	·
COc1ccc(Nc2nnc(SCC3CCCCO3)s2)cc1 (stereo not given)	6%	·	-2	1.1	-3
O=C(O)/C=C/C(=O)Nc1ccccc1-c1ccccc1NC(=O)/C=C/C(=O)O	2%	-31	-3	5.1	-4
O=C(N/N=C/c1ccc(OCC(=O)N2CCCCC2)cc1)c1ccccc1	-7%	-18	6	1.5	0
O=c1[nH]c2ccc(S(=O)(=O)N3CCN(c4ccccc4F)CC3)cc2s1	-8%	-13	-5	1.1	38*	Arbovirus inh repeat=20*
COc1ccc(NC(=O)c2ccc(NC(=O)COC(=O)CC(NC(=O)c3ccccc3Cl)c3ccccc3)cc2)cc1 (stereo not given)	0%	-12	-4	0.5	1
Cc1c(Cl)cccc1NC(=O)CCN1CCCC(C)C1 (stereo not given)	-11%	-16	-2	1.1	-2	Arbovirus inh repeat=4
COc1ccc(NS(=O)(=O)c2cc(NC(=O)c3cccc(OCc4c(C)noc4C)c3)ccc2OC)cc1	5%	-20	11	1.6	-8
CCCn1nc(NC(=O)COC)c2cc3cc(C)ccc3nc21	·	·	5	-162	·
O=C(Cc1ccccc1Cl)NNC(=O)Nc1ccccc1	-2%	-17	-11	-4.1	0
CCOc1ccc(N(C)C(=O)CCc2nnc3ccc(N4CCCCC4)nn23)cc1	·	·	-6	0.0	·
CSc1ccccc1OCc1cc(C(=O)N2CCc3c(Cl)cccc3C2)no1	·	·	-1	5.1	·
c1ccc(-c2noc(C34CC5CC(CC(C5)C3)C4)n2)cc1	-4%	-11	2	4.0	9
CC(=O)Nn1cnc2c(c1=O)C1(CCCCC1)Cc1ccccc1-2	-1%	5	9	-0.3	-5
CC1CC1C(=O)OCC(=O)Nc1ccc(N=Nc2ccccc2)cc1 (stereo not given)	5%	-18	25	3.2	5
CN1C(=O)C(=Cc2ccccc2Oc2ccc(Cl)c(F)c2)C(=O)N(C)C1=O	-1%	16	-3	4.6	-8
COc1ccc(NC(=O)CN2CCC(Cc3ccccc3)CC2)cc1S(=O)(=O)N1CCOCC1	2%	-17	5	-7.7	4
Cc1ccc(-n2nnnc2SCC(=O)Nc2sc(C)c(C)c2C#N)cc1C	7%	8	-4	0.3	0
COc1ccc(C(=O)N/N=C/c2cc(Br)ccc2O)cc1OC	3%	·	2	-2.4	·
Cn1cnc([N+](=O)[O-])c1Sc1ncn[nH]1	-1%	·	14	10	·
O=C(CCN1CCCCO1)N1CCCC(Nc2cccc(F)c2)C1 (stereo not given)	·	·	-19	-2.8	·
Cc1ccc(/C(N)=N/OC(=O)C(C)c2ccc([N+](=O)[O-])cc2)cc1 (stereo not given)	·	·	7	11	·
CCOc1ccc(N2Cc3ncccc3C2=O)cc1	-2%	-37	-1	-0.8	4
Cc1cc(-c2ccc(C)c(S(=O)(=O)N3CCN(c4ccccn4)CC3)c2)on1	·	·	5	1.5	·
O=C(CSc1ccc2nnc(-c3ccccn3)n2n1)N1CCN(c2ccccc2)CC1	1%	-41	3	0.5	4
Cc1ccc(S(=O)(=O)Oc2ccc(/C=C(/NC(=O)c3ccccc3)C(=O)NCCCC(=O)O)cc2)cc1	3%	·	-3	-0.9	8
Cc1ccc(N2C(=O)C3C(C2=O)N2C(c4cccs4)C4C(=O)N(c5ccc(C)cc5)C(=O)C4N2C3c2cccs2)cc1 (stereo not given)	2%	-3	3	-0.4	3
Cc1ccc(C(=O)N2CCCC(Nc3ccc(C)c(C)c3)C2)c(=O)[nH]1 (stereo not given)	·	·	-6	0.1	·
COc1ccc(OC)c(NC(=O)Cn2cc(C=O)c3ccccc32)c1	10%	·	8	-1.9	3
Cc1onc(C(=O)Nc2sc3c(c2C(N)=O)CCCC3)c1[N+](=O)[O-]	-14%	·	-4	-0.1	·
COC(=O)c1ccccc1C(=O)N1CCCC(C(=O)c2ccc(OC)c(OC)c2)C1 (stereo not given)	·	·	-13	-1.3	·
CCOC(=O)c1cc(-c2ccccc2)sc1NC(=O)CC	5%	-5	13	11	-15
CCOc1cccc(N2C(=O)CC(NCc3ccc(S(N)(=O)=O)cc3)C2=O)c1 (stereo not given)	4%	-27	-5	-1.0	2	Arbovirus inh repeat=2
Cn1cccc1C(=O)NC(=O)COC(=O)Cc1coc2ccc3ccccc3c12	-5%	-40	33	1.1	7
CCOC(=O)NC(Cc1c[nH]c2ccccc12)C(=O)NCCc1ccc(S(N)(=O)=O)cc1 (stereo not given)	·	·	-1	-1.2	·
CN1C(=O)C2(c3ccccc31)c1c(oc3ccccc3c1=O)C(=O)N2CCO (stereo not given)	-6%	·	-5	-5.2	·
COC(=O)c1c(NC(=O)c2nc3ccccc3s2)sc2c1CCN(C(C)=O)C2	19%	-41	2	·	-1	Arbovirus inh repeat=-13
CCNC(=S)N(CCCO)Cc1cc2cc3c(cc2[nH]c1=O)OCCO3	·	·	-10	-0.4	·
NC(=O)c1ccccc1N/C=C/C(=O)c1ccco1	-5%	-17	-7	0.4	-3
Cc1nnc(SCc2cc(=O)oc3cc(O)ccc23)n1Cc1ccccc1	-10%	-32	-10	-8.7	6
COc1ccc(N(C)S(=O)(=O)c2ccc(C)cc2)c([N+](=O)[O-])c1	3%	·	2	·	2
NC(=O)C[C@@H]1NC(=O)CNC(=O)c2cc([N+](=O)[O-])cc(I)c2NCCC(C(N)=O)NC1=O (stereo not given in full)	-4%	-29	-2	1.6	10

Taken from above, 15 compounds:
SMILES	Mtb H37Rv	YopH PTP inh	Mtb betalactam	RecA splice inh	Arbovirus inh	others
Cc1ccc(C(=O)N2CCCC(Nc3ccc(C)c(C)c3)C2)c(=O)[nH]1 (stereo not given)	·	·	-6	0.1	·
COc1ccc(OC)c(NC(=O)Cn2cc(C=O)c3ccccc32)c1	10%	·	8	-1.9	3
Cc1onc(C(=O)Nc2sc3c(c2C(N)=O)CCCC3)c1[N+](=O)[O-]	-14%	·	-4	-0.1	·
COC(=O)c1ccccc1C(=O)N1CCCC(C(=O)c2ccc(OC)c(OC)c2)C1 (stereo not given)	·	·	-13	-1.3	·
CCOC(=O)c1cc(-c2ccccc2)sc1NC(=O)CC	5%	-5	13	11	-15
CCOc1cccc(N2C(=O)CC(NCc3ccc(S(N)(=O)=O)cc3)C2=O)c1 (stereo not given)	4%	-27	-5	-1.0	2	Arbovirus inh repeat=2
Cn1cccc1C(=O)NC(=O)COC(=O)Cc1coc2ccc3ccccc3c12	-5%	-40	33	1.1	7
CCOC(=O)NC(Cc1c[nH]c2ccccc12)C(=O)NCCc1ccc(S(N)(=O)=O)cc1 (stereo not given)	·	·	-1	-1.2	·
CN1C(=O)C2(c3ccccc31)c1c(oc3ccccc3c1=O)C(=O)N2CCO (stereo not given)	-6%	·	-5	-5.2	·
COC(=O)c1c(NC(=O)c2nc3ccccc3s2)sc2c1CCN(C(C)=O)C2	19%	-41	2	·	-1	Arbovirus inh repeat=-13
CCNC(=S)N(CCCO)Cc1cc2cc3c(cc2[nH]c1=O)OCCO3	·	·	-10	-0.4	·
NC(=O)c1ccccc1N/C=C/C(=O)c1ccco1	-5%	-17	-7	0.4	-3
Cc1nnc(SCc2cc(=O)oc3cc(O)ccc23)n1Cc1ccccc1	-10%	-32	-10	-8.7	6
COc1ccc(N(C)S(=O)(=O)c2ccc(C)cc2)c([N+](=O)[O-])c1	3%	·	2	·	2
NC(=O)C[C@@H]1NC(=O)CNC(=O)c2cc([N+](=O)[O-])cc(I)c2NCCC(C(N)=O)NC1=O (stereo not given in full)	-4%	-29	-2	1.6	10

Only part of the results is shown, so the mix of outcomes need not match the whole.
